RanGTP-Imp inh: inhibitors of RanGTP-importin-beta interaction, primary screen, biochemical, FRET, CFP-Ran, YFP-importin-beta, homogeneous | cell-free CFP-Ran/YFP-importin-beta FRET ratio | inhibition, % (concentration not given with the values) | hit rate 1.1% among 300,000 | AID 2216;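 active = most replicates above 15%; inconclusive = exactly half above 15%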;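 note: 0% = DMSO wells and 100% = Ran loaded with GDP instead of GTP; wells of about 40 µL received 100 nL stock; the first replicate is given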
T cruzi repl: blocks replication of Trypanosoma cruzi | hit rate 1.4% among 300,000 | AID 1885 | T. cruzi beta-gal in NIH3T3, luminescence, 90 h | inhibition, % (concentration not given with the values);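 active = mean inhibition across valid replicates above about 55%, limit read from the data; inconclusive = mean below that limit but half or more replicates reach it; inactive = mean below it, under half of replicates reach it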;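 note: signal also drops with host cell toxicity which is not excluded here; 0% = plate median of DMSO wells and 100% = zero luminescence signal; higher percent means less beta-gal luminescence so fewer parasites; stock transfer was 50 nL into about 50 µL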
LANA-H2A inh: blocks KSHV LANA binding to histone H2A/H2B; hit rate 0.6% among 320,000; inhibition, % (concentration not given with the values); Q9QR71; cell-free LANA-H2A/H2B peptide, fluorescence polarization; AID 2629; in the data active = inhibition mostly above about 10%, no sharp cut-off; inactive = mostly below about 6.7%;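 note: stock transfer was 7.5 nL into about 10 µL; 0% = median of vehicle wells and 100% = median of positive control wells; one replicate is shown; the record names a cut of 25% in any replicate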
Target sequence (Q9QR71 whole entry, looked up): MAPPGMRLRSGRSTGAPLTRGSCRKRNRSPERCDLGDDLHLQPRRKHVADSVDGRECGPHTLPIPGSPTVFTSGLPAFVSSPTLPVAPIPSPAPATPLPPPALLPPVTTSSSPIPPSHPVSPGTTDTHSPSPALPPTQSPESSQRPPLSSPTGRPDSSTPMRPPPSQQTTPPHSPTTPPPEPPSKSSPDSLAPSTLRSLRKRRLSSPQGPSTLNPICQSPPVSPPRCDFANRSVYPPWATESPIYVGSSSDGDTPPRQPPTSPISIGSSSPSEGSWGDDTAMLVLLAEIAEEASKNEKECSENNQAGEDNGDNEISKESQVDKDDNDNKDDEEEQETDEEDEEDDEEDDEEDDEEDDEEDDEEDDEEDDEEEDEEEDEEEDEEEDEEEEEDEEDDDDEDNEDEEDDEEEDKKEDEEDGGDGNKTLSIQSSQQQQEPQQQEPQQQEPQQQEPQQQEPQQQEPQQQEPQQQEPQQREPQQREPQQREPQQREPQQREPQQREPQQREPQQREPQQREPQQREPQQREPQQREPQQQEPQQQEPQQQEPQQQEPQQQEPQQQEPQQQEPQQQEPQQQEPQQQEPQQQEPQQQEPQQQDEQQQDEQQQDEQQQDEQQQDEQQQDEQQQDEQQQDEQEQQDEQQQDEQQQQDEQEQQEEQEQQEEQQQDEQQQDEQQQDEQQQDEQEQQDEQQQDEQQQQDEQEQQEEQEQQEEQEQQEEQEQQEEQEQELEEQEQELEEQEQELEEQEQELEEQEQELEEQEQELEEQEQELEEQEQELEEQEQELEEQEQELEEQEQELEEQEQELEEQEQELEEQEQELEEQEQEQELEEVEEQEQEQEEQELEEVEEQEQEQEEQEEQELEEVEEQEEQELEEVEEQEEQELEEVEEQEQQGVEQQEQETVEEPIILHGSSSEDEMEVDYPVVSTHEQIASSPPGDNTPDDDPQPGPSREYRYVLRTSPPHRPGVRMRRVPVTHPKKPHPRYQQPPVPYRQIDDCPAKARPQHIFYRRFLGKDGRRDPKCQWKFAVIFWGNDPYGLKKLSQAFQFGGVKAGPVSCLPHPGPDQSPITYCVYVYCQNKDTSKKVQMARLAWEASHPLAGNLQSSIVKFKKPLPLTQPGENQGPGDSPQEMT
Bfl-1 A1 inh: inhibitors of the anti-apoptotic protein A1, read as caspase activation; hit rate 0.066% among 330,000; MEF A1-2A-BIM cells, Caspase-Glo 3/7 luminescence, 3 h; percent of clofoctol response, vehicle zero; caspase activation, % (no concentration beside the values); AID 2462;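 active = over half of replicate activation scores above 10%, or exactly half above 10 with the replicate mean above 10; inconclusive = replicate mean below 10 yet half the replicates above 10; inactive = over half of replicates below 10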;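 note: wells of about 30 µL received 50 nL stock; many hits fall short of the cut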
Beta apoptosis: beta cell apoptosis inhibition | hit rate 0.8% among 300,000 | AID 435005 | INS-1E cytokine-induced death, ATP luminescence, 48 h; percent of positive-control rescue, neutral wells zero | protection from apoptosis, % (test concentration not listed);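 active = all replicates at 75% or more, or half of them and the mean; inconclusive = half reach 75% but not the mean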;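 note: 0% = cytokine-treated negative control wells and 100% = positive control rescue; higher means more ATP so stronger rescue from cytokine killing; wells of about 40 µL received 100 nL stock; the first replicate is given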
B2AR ag: agonists of human beta-2 adrenergic receptor inducing internalization. P07550. Am2.2-beta2AR cells, FAP receptor internalization, flow cytometry; reference of the scale not given here. response, % (concentration not given with the values). hit rate 0.43% among 340,000. AID 504454;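 active = response above a set limit, near 3 SD of response in nonfluorescent compounds, cut at about 42% in these data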;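 note: stock transfer was 100 nL into about 11 µL; a reference agonist was the positive control; negative values mostly stem from fluorescent compounds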
Calb FLC: affects C. albicans growth with fluconazole; C. albicans CaCi-2 (fluconazole-resistant clinical isolate) + fluconazole, Alamar Blue growth, 48 h; hit rate 0.57% among 300,000; growth inhibition, % (concentration not given with the values);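 active = most replicates above 75%; inconclusive = exactly half above 75%; inactive = most below 75%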;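 note: all wells also contain fluconazole at 8 µg/ml as a sub-toxic cotreatment; 0% = median of DMSO wells and 100% = median of geldanamycin control wells; wells of about 8 µL received 7.5 nL stock; the first replicate is given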
UCH37 DUB inh: inhibitors of human deubiquitinating enzyme UCH37; AID 588478; purified proteasome/UCH37, Ub-AMC cleavage fluorescence; hit rate 0.33% among 330,000; Q9Y5K5; inhibition, % (no concentration beside the values);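 active = mean of two replicates above 20%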;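 note: 0% = compound-free wells with enzyme and 100% = wells lacking proteasome; stock transfer was 100 nL into about 20 µL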
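Material: Human UCH37 enzyme supplied as purified proteasome complex | Schedule: 30 min preincubation with enzyme, 25 min cleavage at room temperature | Detection: AMC fluorescence 355/460 nm | Measure: % inhibition of Ub-AMC cleavage fluorescence | Controls: Wells without proteasome as full block, compound-free enzyme plus substrate as uninhibited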
* marks the source's active call; other numbers are inactive results; ? = inconclusive; . = not tested or not shown.

SMILES	RanGTP-Imp inh	T cruzi repl	LANA-H2A inh	Bfl-1 A1 inh	Beta apoptosis	B2AR ag	Calb FLC	UCH37 DUB inh
O=C(O)c1ccc(-c2ccc(Cl)cc2Cl)o1	-4.7	-0.2	3.2	0.2	-2.4	10.0	-2.0	2.0
CCN(CC)S(=O)(=O)c1ccc(OC)c(NC(=O)CSc2cc(C)ccc2C)c1	-0.6	0.2	2.8	-0.1	-15.5	1.7	3.1	1.8
O=C(COC(=O)CNC(=O)c1cccc([N+](=O)[O-])c1)Nc1cccc(S(=O)(=O)N2CCCCC2)c1	-2.6	-7.0	2.9	0.8	-3.1	6.2	-7.4	-1.2
Cc1nc2sc(C(c3ccccc3)N3CCN(C(=O)c4ccco4)CC3)c(O)n2n1 (stereo unspecified)	-5.3	-6.2	-0.2	0.5	.	-1.1	-13.8	0.7
CC(=O)c1ccc(OCCCC(=O)N2CCN(S(=O)(=O)c3ccc(C)cc3C)CC2)cc1	1.7	17.5	1.3	1.5	-2.5	5.0	-1.1	-0.2
CC(C)(C)c1ccc(OCC(=O)NNC(=S)NC(=O)c2ccccc2[N+](=O)[O-])c(Br)c1	2.9	-7.4	3.7	0.7	-2.6	-3.4	-2.3	5.3
C#CCNC(=O)C1=C[C@H](c2ccccc2)[C@@H](CCCO)[C@H](OCC)O1	0.5	-8.5	3.3	-0.1	4.0	-0.1	-10.7	0.6
CCCC(=O)Nc1ccccc1NC(=O)CCC	?	-5.1	-4.1	0.2	0.6	2.4	-5.9	1.3
O=C(COc1ccc(Cl)cc1Cl)N/N=C1\CCCc2ccccc21	?	2.2	-0.6	-1.9	.	-10.1	?	.
COCCNC(=O)C1Nc2ccc(C(F)(F)F)cc2C2C=CCC12 (stereo unspecified)	0.9	-13.8	2.2	0.6	2.6	2.9	-8.0	0.1
Cc1cc(NC(=O)CC(CN(C)S(=O)(=O)c2ccccc2)c2ccccc2)no1 (stereo unspecified)	-1.3	8.6	2.0	0.0	8.1	-5.4	-9.0	1.4
CN(C(=O)CCn1c(=S)oc2ccccc21)C1CCCCC1	0.1	7.1	-2.5	-0.9	-4.9	-6.1	2.6	3.8
CCN1/C(=C/c2ccc3ccccc3[n+]2CC)C=Cc2ccccc21	-2.5	46.5	-73.3	-2.3	107.7*	-770.9	105.1*	3.8
Cc1cc(C)nc(NC(=O)c2ccc([N+](=O)[O-])o2)n1	7.6	19.1	-4.3	-0.3	-14.4	5.6	17.6	-1.3
CCOc1cc(C2/C(=C(/O)c3ccc(OC(C)C)cc3)C(=O)C(=O)N2CCCOC)ccc1O (stereo unspecified)	-0.5	-7.1	-1.4	0.1	-0.4	-1.2	7.2	2.6
CC(C)(C)OC(=O)N1CCCC(C(=O)Nc2ccc(C(=O)N3CCCCC3)cc2)C1 (stereo unspecified)	.	.	6.7	1.3	-7.7	0.1	.	-0.7
CN(CC(=O)O)S(=O)(=O)c1ccc2c(c1)NC(=O)CC(=O)N2	2.3	-12.3	2.0	0.5	-1.7	-3.9	-10.9	3.8
CC(/C=N/NC(=O)c1ccc(Br)cc1)=C\c1ccccc1	0.8	-2.9	-0.9	-0.7	1.6	4.3	3.7	.
CC1=C(C)CS(=O)N(S(=O)(=O)c2ccccc2)C1 (stereo unspecified)	6.2	-14.0	13.9*	-0.6	1.1	5.7	13.1	4.1
N#Cc1c(N2C(=O)c3ccc(C(=O)O)cc3C2=O)sc2c1CCCC2	4.1	-12.6	1.2	0.1	-5.0	-2.6	2.6	6.5
Cc1occc1C(=O)NC(C)CCc1ccccc1 (stereo unspecified)	8.0	-3.0	-2.1	0.0	2.0	-0.6	-0.5	-0.4
C=CCNCC(=O)N1N=C(c2ccc3ccccc3c2)CC1c1ccc(OC)cc1 (stereo unspecified)	-5.1	46.4	-1.0	0.9	8.5	5.0	30.7	-4.4
Brc1ccc(COc2ncnc3ccccc23)cc1	2.3	7.4	1.7	-0.4	.	-14.3	-9.6	4.1
COc1ccc(NC(=O)CN(C)C(=O)c2c(C)nn(Cc3ccc(C)cc3)c2Cl)cc1	.	.	.	-0.7	6.6	-4.9	.	4.2
CCCOc1ccc(C2C(=O)N(C3CCCCCC3)CC(=O)N2Cc2ccco2)cc1OC (stereo unspecified)	-2.2	9.7	5.1	0.2	10.8	0.9	3.1	0.2
New compounds follow:
SMILES	RanGTP-Imp inh	T cruzi repl	LANA-H2A inh	Bfl-1 A1 inh	Beta apoptosis	B2AR ag	Calb FLC	UCH37 DUB inh
COc1ccc(-c2cc(C(=O)Nc3ccc(S(N)(=O)=O)cc3)c3ccccc3n2)cc1OC	2.1	-1.4	-4.1	-0.3	5.1	1.7	0.6	-116.2
Cn1cnnc1SCC(=O)Nc1cccc(S(=O)(=O)N2CCOCC2)c1	3.9	-1.4	-11.1	-0.8	-0.8	10.6	5.2	5.2
CC(NC(=O)c1ccccc1NC(=O)CN1CCN(c2ccccc2O)CC1)c1ccccc1 (stereo unspecified)	.	.	-1.4	-0.2	-1.8	-0.7	.	2.8
CCOc1ccccc1NC(=O)CSc1nnc2ccc(-c3ccccn3)nn12	1.7	11.2	.	0.0	-3.5	0.8	-1.2	1.9
COc1cc(OC)cc(C(=O)OCC(=O)NCCCc2ccccc2)c1	-1.7	2.1	0.6	0.7	4.3	-5.8	-0.2	1.0
O=C(OCC#CCSc1nnc(-c2ccncc2)o1)c1cccs1	0.9	24.5	-0.5	-0.9	-9.8	-3.4	5.9	-0.1
COc1ccccc1C(CC(=O)Nc1ccccc1C)c1ccc(OC(C)C)cc1 (stereo unspecified)	-1.3	11.8	-8.7	-0.1	5.4	-1.3	-28.4	2.6
CCCC(=O)Nc1nnc(S(=O)(=O)N(CC(C)C)c2ccccc2)s1	2.6	-1.7	0.1	0.2	2.7	.	1.1	1.5
CC(=O)Nc1ccc(-c2csc(NC(=O)Cc3cccc(F)c3)n2)cc1	-2.3	11.9	0.7	0.8	9.8	4.0	-3.6	-0.1
CCn1c(CO)nc2c1c(=O)[nH]c(=O)n2Cc1ccccc1	0.9	7.1	0.3	0.1	-1.6	16.5	-3.8	1.7
COc1cc(C(=O)OCC(=O)Nc2nnc(-c3ccccc3)o2)cc(OC)c1OC	3.7	-2.3	.	0.9	0.9	7.0	-12.9	-1.2
N#CC1(NC(=O)CN2C(=O)NC(c3ccccc3)(c3ccccc3)C2=O)CCCC1	.	.	.	0.9	-13.5	-5.2	.	7.1
CS(=O)(=O)N1CCC(C(=O)Nc2cccc(F)c2)CC1	1.4	-4.8	0.1	-0.5	2.7	-3.8	6.6	3.8
COc1ccc(-c2csc(NC(=O)Cc3cccc4ccccc34)c2C(=O)O)cc1	4.5	-14.3	.	.	.	5.1	-8.4	5.9
COc1ccc(CNC(=O)C2CCC(CNS(=O)(=O)c3cccc4nsnc34)CC2)cc1 (stereo unspecified)	2.1	0.6	3.3	-0.1	-17.2	7.2	3.0	3.2
O=C(CCCn1c(=S)[nH]c2cc3c(cc2c1=O)OCO3)NC1CC1	-3.9	17.3	4.6	0.2	-13.7	-21.2	-13.5	7.1
CC(OC(=O)c1ccc(Br)o1)C(=O)NCC1CCCCC1 (stereo unspecified)	.	.	0.5	1.5	-3.9	-0.1	.	0.7
Cc1cccc(NC(=O)c2cccc(S(=O)(=O)N3CCCCC3)c2)c1	-0.6	7.0	-5.3	-0.5	-2.2	-6.7	-4.4	4.2
O=C(NCc1ccccc1)c1onc(CSc2ccccc2)c1C(=O)NCC1CC1	-0.1	58.3*	-1.8	-1.2	73.5	-8.5	-1.1	0.1
COc1cc(C)ccc1OCc1cc(C(=O)N(Cc2nccn2C)C(C)C)no1	2.7	9.5	-1.5	0.2	-3.3	0.2	2.9	2.7
CN(CC(=O)Nc1cccc(F)c1)CC(=O)Nc1ccccc1-c1ccccc1	.	.	0.2	-0.6	7.6	-7.8	.	1.0
O=C(NC1CCCCCCC1)c1c(Cl)cccc1Cl	0.9	-5.3	2.8	0.9	-2.0	2.6	-4.4	-0.2
COc1ccc(N2CCC(CNC(=S)Nc3ccc(C)cc3C)C2)cc1 (stereo unspecified)	-2.3	4.2	-2.8	0.2	0.5	1.0	-11.2	-0.7
CC(CN1CCCC1)OC(=O)c1cccc(F)c1 (stereo unspecified)	2.7	-1.5	2.5	-0.1	.	0.5	-12.7	5.2
Cc1ccccc1NC(=O)c1cccc(S(C)(=O)=O)c1	2.7	-9.9	-0.8	-0.1	-2.1	1.1	-18.9	0.7
The list goes on:
SMILES	RanGTP-Imp inh	T cruzi repl	LANA-H2A inh	Bfl-1 A1 inh	Beta apoptosis	B2AR ag	Calb FLC	UCH37 DUB inh
O=C(NC1=NCCS1)c1cc2ccccc2o1	5.7	-7.2	-3.3	-7.2	0.4	-1.9	-1.8	1.2
CCCCn1c(N)c(N(CC(C)C)C(=O)C2CCCO2)c(=O)[nH]c1=O (stereo unspecified)	-2.0	-3.9	-1.1	-0.5	-3.9	-4.1	-4.1	-1.6
CCN(CC)S(=O)(=O)c1ccc(O)c(C(=O)OCC(=O)NC23CC4CC(CC(C4)C2)C3)c1	.	.	-1.3	0.6	-7.0	-2.2	.	-10.5
C=C(C)CCOC(=O)C(CC(=O)O)NCc1ccco1 (stereo unspecified)	0.8	22.1	3.6	-0.3	-4.2	-0.9	?	1.1
CCOc1ccc(S(=O)(=O)N2CCCC(C(=O)N3CCN(CC)CC3)C2)cc1Cl (stereo unspecified)	7.6	13.6	-10.8	-0.5	3.0	-1.7	-6.8	0.1
O=C(O)CCCCCN1C(=O)CCC1=O	?	1.0	3.2	0.5	-5.6	3.1	2.3	0.2
CCOC(=O)CC(NC(=O)c1ccc(C)cc1)c1ccc(OC)cc1 (stereo unspecified)	2.2	2.2	0.3	2.5	3.9	3.4	6.0	2.7
OC(Cc1nc2ccccc2[nH]1)c1ccccc1Cl (stereo unspecified)	-1.0	0.3	1.4	0.0	-0.3	-10.5	-7.1	1.0
CSc1nc(C)c2c(n1)N(c1ccc(F)cc1)CC2	-0.8	7.5	-5.0	0.1	-6.7	-11.7	-8.8	1.2
CC1(C)CC(=O)C2=C(C1)OC(N)=C([N+](=O)[O-])C2c1ccc(F)cc1 (stereo unspecified)	0.3	-21.3	4.1	0.7	1.3	5.0	1.6	8.4
COc1ccc(-c2cc(C(F)(F)F)n3nc(C(=O)Nc4c(C)n(C)n(-c5ccccc5)c4=O)c(Cl)c3n2)cc1	-1.9	0.4	-1.3	1.4	-2.2	4.0	1.3	-1.2
COc1ccc(Nc2nc(-c3ccncc3)nc3ccccc23)cc1	0.5	42.4	-4.6	-0.5	8.7	-2.7	.	-27.7
Cc1ccc(-c2nn3c(C)nnc3s2)cc1N	-5.7	5.2	-3.5	-5.9	-4.2	5.3	0.3	5.3
N#C/C(N)=C(/C#N)N=Cc1cccc(Cl)c1	-0.4	-8.3	-0.1	-4.1	-8.2	3.5	-0.7	6.6
COc1ccc(OCCC(=O)OCC(=O)NCc2ccc(F)cc2)cc1	0.9	0.3	3.0	0.1	-4.0	2.7	3.7	1.6

Compound activity as filed in PubChem BioAssay.
